# VACV mCherry inh = vaccinia inhibition (mCherry reporter). Potency, µM (doses to about 36.5 µM), without a hit: at the top dose activity change, negative = inhibition, usual class: inhibitors. Vaccinia virus mCherry reporter infection, fluorescence; about a quarter of the inactives have no number. 310,000 compounds, 0.63% hits; active = well fitted inhibition curve with a large enough effect; inconclusive = small, poorly fitted or top-dose-only effect; inactive = no such curve, though single readings can be large or run the other way; tested in A549 cells; further: nearly all actives have a fitted effect of over 35% in size; inactives centre near -10
# VACV Venus inh = vaccinia inhibition (Venus reporter); Vaccinia virus Venus reporter expression, fluorescence; Potency, µM (doses to about 36.5 µM), for the others: at the highest dose activity change, negative = inhibition, hits mostly inhibitors; 330,000 compounds, 0.46% hits; active means well fitted inhibition curve with a large enough effect; inconclusive means small, poorly fitted or top-dose-only effect; inactive means no such curve, though single readings can be large or run the other way; tested in A549 cells; further: nearly all actives have a fitted effect of over 30% in size; inactives centre near -10
# Active calls of the source: *; i = inactive; ? = inconclusive; / = no result given. On the % scale 0 is the no-effect control and ±100 the full control effect; potency means the concentration at half of the fitted maximal effect.
SMILES,VACV mCherry inh,VACV Venus inh
O=C(CNC(=O)C(c1ccccc1)c1ccccc1)N/N=C/c1ccc(O)c([N+](=O)[O-])c1,-3.5%,-6.8%
CCOC(=O)NC(=O)/C(C=Nc1ccc(Cl)c(Cl)c1Cl)=C(\C)O,-4.9%,-7.2%
CCn1c2ccccc2c2cc(/C=N/n3c(C)nnc3C)ccc21,-17.0%,-13.4%
CCOc1ccc(OCC)c(NC(=O)C2CCCN(S(=O)(=O)c3ccc(C)cc3)C2)c1 (centres undefined),-14.9%,-18.7%
COc1ccc(NC(=O)CCc2nc(C3=CCN(Cc4cccc(Cl)c4)CC3)no2)cc1OC,-3.2%,-16.8%
Fc1ccc(C2=NNC(=NCc3ccccc3)SC2)cc1F,-8.3%,-14.4%
CN1C(=O)CCS(=O)(=O)C1c1ccc(Cl)c(Cl)c1 (centres undefined),i,-10.4%
CCOC(=O)N1CCN(CC(=O)Nc2cc(OCC)ccc2OCC)CC1,-9.8%,-17.4%
Cc1c(CCC(=O)N2CCCCC2)c(=O)oc2cc3occ(C(C)(C)C)c3cc12,-3.1%,?
O=C(NC1CCCCC1)C(c1ccccn1)N(C(=O)c1csnn1)C1CCCCC1 (centres undefined),-11.9%,-11.2%

# The list goes on, overlapping the part above by 3 compounds.
SMILES,VACV mCherry inh,VACV Venus inh
CCOC(=O)N1CCN(CC(=O)Nc2cc(OCC)ccc2OCC)CC1,-9.8%,-17.4%
Cc1c(CCC(=O)N2CCCCC2)c(=O)oc2cc3occ(C(C)(C)C)c3cc12,-3.1%,?
O=C(NC1CCCCC1)C(c1ccccn1)N(C(=O)c1csnn1)C1CCCCC1 (centres undefined),-11.9%,-11.2%
C=CC[C@@H](CC(=O)NCCO)C(=O)N[C@@H](COC(=O)[C@@H](CC=C)CC(=O)OC(C)(C)C)Cc1ccccc1,i,-15.8%
Cc1nc(-c2ccccc2)cn(O)c1=O,-24.2%,-15.1%
CC(C)(C)OC(=O)N1CCC[C@H]1C(=O)N/N=C/c1cccc2cccnc12,-9.6%,-7.0%
c1ccc(-c2nnc(-c3ccccn3)c(-c3ccccn3)n2)nc1,-7.1%,4.3%
O=C(COC(=O)c1cncc(Br)c1)Nc1ccc2c(c1)OCO2,-4.7%,4.2%
CC(=O)Nc1ccc(NC(=O)C(C)OC(=O)c2cccc(S(=O)(=O)N3CCCCCC3)c2)cc1 (centres undefined),-23.5%,-15.2%
O=[N+]([O-])c1ccccc1N/N=C\c1ccccc1Cl,-3.3%,-18.4%
CSc1nnc(-c2cccc(NC(=O)c3ccccc3)c2)n1C,-11.5%,-5.6%
O=C(NC(NC(=S)N1CCOCC1)C(Cl)(Cl)Cl)c1ccc(Cl)cc1 (centres undefined),-13.0%,0.4%
CC(NC(=S)NCCCN1CCOCC1)C12CC3CC(CC(C3)C1)C2 (centres undefined),?,-20.8%
CCn1ccnc1CN(C)Cc1nc(-c2ccc3c(c2)OCO3)no1,?,-6.7%
CC(C)NC(=O)c1onc(CSc2ccccc2)c1C(=O)O,-16.0%,-8.8%
NC(=O)C1CCN(C(=O)/C=C/c2cc(Br)ccc2F)CC1,-6.7%,-1.7%
COc1ccc2c(C)cc(SCC(=O)Nc3ncc(Cl)cc3Cl)nc2c1,i,-13.6%
CCOC(=O)c1ccc(N=NN(C)C)cc1,i,-9.2%
CCOC(=O)C1=C(COC(=O)c2cc(S(=O)(=O)N3CCOCC3)ccc2F)NC(=O)NC1C (centres undefined),-7.4%,-24.3%
CCCn1c(SCC(=O)NC2CCCCC2)nnc1-c1cccnc1,-1.2%,-16.1%
COc1ccc(OC)c(/C=N/NC(=O)c2cc[n+](CC(=O)c3ccccc3)cc2)c1,-9.7%,-6.6%
COc1ccc(-n2cc(CNCCc3ncc(C)[nH]3)c(-c3ccccc3Cl)n2)cc1,i,-8.1%
Cc1ccc(NS(=O)(=O)c2c(C)nc3sc(C)cn3c2=O)c(C)c1,-18.2%,-22.8%
CCOC(=O)c1c(NC(=O)COC(=O)c2cc(OC)c(OC)cc2[N+](=O)[O-])sc(C)c1CC,-14.6%,-14.7%
O=c1c2ccccc2nc2n1C(CSc1ccc(F)cc1)CN2 (centres undefined),/,-18.0%
CCN(CC(=O)Nc1c(F)cccc1F)C(=O)c1ccc(OC)c(S(=O)(=O)NC2CCCC2)c1,-10.3%,-11.8%
N#Cc1c(N)n(-c2ccccc2N)c2nc3ccccc3nc12,-21.9%,-3.9%
CN(C(=O)COC(=O)C1CCN(S(=O)(=O)c2c(Cl)cccc2Cl)CC1)c1ccccc1,-20.3%,-8.9%
CN(C(=O)CSc1nnc(-c2ccc([N+](=O)[O-])cc2)o1)c1ccccc1,-17.0%,-13.4%
CCN(CC(=O)Nc1c(F)cccc1F)C(=O)C1=COCCO1,-13.7%,-6.7%
Nc1ccccc1C#Cc1cnccn1,?,-13.3%
O=C(OCc1nnc(-c2ccc(Cl)cc2)o1)c1ccc(O)cc1,9.5%,2.2%
CC1(C)CC(=O)C2(CC3=C(CC(C)(C)CC3=O)O2)C(=O)C1,/,-12.4%
COc1ccc(/C=C/C(=O)OCC(=O)N2CC(=O)Nc3ccccc32)cc1,-15.3%,-15.6%
COc1cc(/C=C/C(=O)Nc2ccc(N3CCCCC3)c(S(=O)(=O)Nc3ccccc3Cl)c2)cc(OC)c1OC,-7.6%,-4.6%
COc1cccc(Oc2cc(Cl)nc(N)n2)c1,i,-8.3%
O=C(CN1CC=C(c2ccccc2)CC1)Nc1cc(Cl)ccc1Cl,-14.4%,-7.5%
O=C(Nc1ccccc1C(=O)N1CCCCCC1)c1ccccc1,i,-1.6%
C/C(=N\Nc1nc2ccccc2s1)c1ccc2c(c1)OCO2,i,-13.0%
CCCCn1c(N)c(N(CCOC)C(=O)COC(=O)COc2cc(C)c(Cl)cc2C(C)C)c(=O)[nH]c1=O,?,-18.1%
O=C(NCc1ccccc1F)C1CCC(=O)N(Cc2ccc(Cl)cc2)C1 (centres undefined),-2.2%,-13.2%
CN1CCc2c(n(CC(O)CNCc3ccccc3)c3ccccc23)C1=O (centres undefined),i,-11.1%
CC(C)CNc1nc(N)c([N+](=O)[O-])c(NCc2ccccc2)n1,-18.3%,-21.7%

# Full records from above:
# Entry for COc1ccc(/C=C/C(=O)OCC(=O)N2CC(=O)Nc3ccccc32)cc1 = VACV mCherry inh: -15.3%; VACV Venus inh: -15.6%
# Entry for O=C(Nc1ccccc1C(=O)N1CCCCCC1)c1ccccc1 = VACV mCherry inh: i; VACV Venus inh: -1.6%

# Further results follow:
SMILES,VACV mCherry inh,VACV Venus inh
ON=C1c2ccccc2-c2ccc(Br)cc21,-23.7%,-15.9%
O=C1CN(C(=O)Cn2ncc(Cl)c(Cl)c2=O)c2ccccc2N1,?,?
Cc1cc(OCC(=O)Nc2cnn(CCCC(=O)O)c2)ccc1[N+](=O)[O-],-14.9%,2.0%
CCOC(=O)c1c(C)sc(-c2c(-c3ccc4c(c3)OCCO4)[nH]c3c2c(=O)[nH]c(=O)n3C)c1O,?,-20.3%
O=[N+]([O-])c1ccc(Cl)c(S(=O)(=O)/N=C(/Nc2cccnc2)c2ccccc2)c1,-13.4%,-3.2%
O=C(CCc1nc2ccccc2c(=O)[nH]1)OCC(=O)N1CCN(S(=O)(=O)c2ccccc2)CC1,i,-2.5%
CCc1nc2ccc(C(=O)Nc3ccc4c(c3)OCC(=O)N4)cn2c1N(CC)CCOC,-8.7%,-19.8%
Cc1cc(C)n(-c2cc(N3CCN(C(=O)c4ccccc4C)CC3)ccc2[N+](=O)[O-])n1,-23.6%,-17.6%
CN(CC(=O)NC1CCCCC1)S(=O)(=O)c1ccc(Br)s1,/,-29.8%
CC(C)(C)n1nc2c(c1NC(=O)c1ccc([N+](=O)[O-])cc1)CS(=O)(=O)C2,i,-15.3%
Cc1ccnc(NC(=O)CCC(=O)N(CC(=O)NC2CCCCC2)CC2CCCO2)c1 (centres undefined),/,4.9%
CCOc1cc(N2CCOCC2)c(OCC)cc1NCC(=O)N1CCN(Cc2ccccc2)CC1,?,-11.1%
CCCCC(=O)Nc1nnc(S(=O)(=O)N2CCCCCC2)s1,-6.0%,-5.2%
C=CCC(C(=O)OC)(C(=O)OC)c1ccc([N+](=O)[O-])cn1,-11.4%,-4.9%
CCCn1c(/N=C/c2c[nH]c3ccccc23)nc2ccccc21,-26.7%,-14.4%
Cc1ccccc1C(=O)N1c2ncnn2C2(CCCCC2)[C@@H]2CCCC[C@@H]21,-15.6%,-8.0%
Cc1c(C(=O)O)sc2[nH]c(=O)n(Cc3ccccc3)c(=O)c12,i,-5.3%
CCSc1nc(N)c2c3c(sc2n1)CCC3,/,-29.8%
COc1cc(NC(=O)/C=C/c2ccccc2)c(C(=O)O)cc1OC,1.2%,6.5%
Cc1cccc(-c2cc3c(nn2)-c2ccccc2C3=O)c1,/,-8.9%
COCCN(C(=O)CCC(=O)Nc1cc(C)on1)C(C(=O)NC(C)(C)C)c1cccc(OC)c1OC (centres undefined),i,-18.5%
CCOc1cc(/C=N/NC(=O)NN(C)c2ncc(C(F)(F)F)cc2Cl)ccc1O,?,-26.6%
CCOC(=O)C1CCCN(C(=O)c2cc(C)oc2C)CC1 (centres undefined),8.1%,-0.7%
O=C(CSc1nc(=O)n2cc(Cl)ccc2n1)Nc1ccc2c(c1)OCO2,-17.7%,-15.4%
O=C(Cc1cccc(NC(=O)C2CCCN(C(=O)C3CC3)C2)c1)Nc1cccc(C(=O)N2CCCCC2)c1 (centres undefined),-12.9%,-11.7%
C[N+]1(CC2COC3(CCCCC3)O2)CCCCC1 (centres undefined),i,-11.9%
Cc1ccc(NC(=S)N2CCN(Cc3ccccc3)CC2)c(C)c1,-20.3%,-21.9%
CC(SCc1ccccc1)C(=O)Nc1ccc(F)cc1 (centres undefined),-23.0%,5.2%
O=C(/C=C/c1ccc(Cl)cc1)c1cccnc1,?,?
O=C(CCN1CCOCC1)Nc1cc(C(=O)Nc2ccc(Cl)cc2)ccc1N1CC2CC(C1)c1cccc(=O)n1C2 (centres undefined),i,-9.6%
COc1ccc(S(=O)(=O)N2CCN(CCC(=O)Nc3ccccc3F)CC2)cc1,i,-18.1%
CCOC(=O)[C@]12CCC=C1N(Cc1cccc3ccccc13)C(=O)[C@H](CC(=O)NCC13CC4CC(CC(C4)C1)C3)C2,-24.4%,?
Cc1ccc(C)c(S(=O)(=O)N2CCCCC2CCNC(=O)C(=O)NC2CCCC2)c1 (centres undefined),-24.0%,?
O=C(Nc1cccc(C(=O)O)c1)/C(=C\c1cccc([N+](=O)[O-])c1)NC(=O)c1ccc(Br)cc1,i,-17.2%
COc1ccc(-c2nn(-c3ccccc3)cc2C(=O)O)cc1,-5.3%,6.0%
Cc1cc([N+](=O)[O-])nn1CCCC(=O)NCc1ccc(F)cc1,-29.3%,-2.0%
O=C(Nc1cccc(Cl)c1)N(Cc1nc2ccccc2c(=O)[nH]1)C1CCCC1,?,-25.1%
Cc1ccc(CN2CCN(/N=C/c3ccc(C)s3)CC2)c(C)c1,-4.1%,-8.7%
COc1ccc(-c2noc(CN(C)C(=O)c3ccco3)n2)cc1,-1.3%,0.5%
O=C1NC[C@H](CCCCN2C[C@H](Cc3ccccc3)N(CCc3ccc(O)cc3)C(=O)C2=O)N(CC2CCCCC2)C1=O,i,6.0%

# By substructure, the entries above containing two or more sulfur atoms (4)
SMILES,VACV mCherry inh,VACV Venus inh
Cc1ccc(NS(=O)(=O)c2c(C)nc3sc(C)cn3c2=O)c(C)c1,-18.2%,-22.8%
CN(CC(=O)NC1CCCCC1)S(=O)(=O)c1ccc(Br)s1,/,-29.8%
CCCCC(=O)Nc1nnc(S(=O)(=O)N2CCCCCC2)s1,-6.0%,-5.2%
CCSc1nc(N)c2c3c(sc2n1)CCC3,/,-29.8%

# The list continues.
SMILES,VACV mCherry inh,VACV Venus inh
COc1ccc(S(=O)(=O)n2ccc(-c3ccc4c(c3)CCC(C)(C)O4)n2)cc1,-19.0%,-15.9%
O=C(Nc1ccccc1C(F)(F)F)c1cccn(Cc2ccccc2)c1=O,-13.0%,2.2%
O=C(CN1C(=O)CNC1=O)Nc1cc(Cl)cc(Cl)c1,-5.5%,-12.4%
O=C(CSc1nnc(CCCN2C(=O)c3cccc4cccc(c34)C2=O)n1-c1ccccc1)NCCCN1CCOCC1,-7.5%,0.1%
COc1ccc(N(CC(=O)NC2CCCC2)C(=O)CS(=O)CC(=O)Nc2ccc3c(c2)OCO3)cc1 (centres undefined),-14.6%,0.0%
Cc1ccc2nc(-c3ccc(C)s3)c(Nc3ccc4c(c3)OCCO4)n2c1,7.5%,-3.0%
O=C(NCS(=O)(=O)c1ccccc1)c1ccccc1,-8.3%,5.6%
N#Cc1ccsc1NC(=O)C1CC(=O)N(Cc2ccccc2)C1 (centres undefined),-9.6%,2.3%
COc1cc2c(c(OC)c1)C(=O)OC(C)CCCC(=O)CCCCC2 (centres undefined),-3.1%,-11.6%
C=CCn1c(O)c(C(CC)=NCc2ccco2)c(=O)[nH]c1=O,-14.7%,-15.2%
NC(=O)NC(=O)CSc1nnc(-c2ccc(Cl)cc2)n1CC1CCCO1 (centres undefined),-10.8%,-12.5%
O=C(CN1C(=O)NC2(CCCCC2)C1=O)NC1CCCc2ccccc21 (centres undefined),-17.0%,-3.5%
CC(CCc1ccccc1)NC(=O)c1nnc(Cc2ccc(Cl)cc2)o1 (centres undefined),?,?

# From PubChem BioAssay
